Screening data: PubChem BioAssay, National Center for Advancing Translational Sciences (NCATS)
TRPML1 inh – blocks the human TRPML1 channel | Q9GZU1 | TRPML1-inducible cells, Ca2+ dye fluorescence, FDSS; active compounds read low; inhibition of EC80 agonist-evoked calcium signal | activity change, negative = inhibition, % (no concentration beside the values) | 390,000 compounds, 0.02% hits; in the data active means activity change below about -50%; inconclusive means about -30% to -50%; inactive means above about -30%;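 further: stimulus is agonist 54-4 at its EC80 concentration; on the % scale 0 is the no-effect control and ±100 the full control effect; compound concentration not given in the record; the text of the record puts the active cut at -80%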
Target sequence (Q9GZU1 whole entry, looked up): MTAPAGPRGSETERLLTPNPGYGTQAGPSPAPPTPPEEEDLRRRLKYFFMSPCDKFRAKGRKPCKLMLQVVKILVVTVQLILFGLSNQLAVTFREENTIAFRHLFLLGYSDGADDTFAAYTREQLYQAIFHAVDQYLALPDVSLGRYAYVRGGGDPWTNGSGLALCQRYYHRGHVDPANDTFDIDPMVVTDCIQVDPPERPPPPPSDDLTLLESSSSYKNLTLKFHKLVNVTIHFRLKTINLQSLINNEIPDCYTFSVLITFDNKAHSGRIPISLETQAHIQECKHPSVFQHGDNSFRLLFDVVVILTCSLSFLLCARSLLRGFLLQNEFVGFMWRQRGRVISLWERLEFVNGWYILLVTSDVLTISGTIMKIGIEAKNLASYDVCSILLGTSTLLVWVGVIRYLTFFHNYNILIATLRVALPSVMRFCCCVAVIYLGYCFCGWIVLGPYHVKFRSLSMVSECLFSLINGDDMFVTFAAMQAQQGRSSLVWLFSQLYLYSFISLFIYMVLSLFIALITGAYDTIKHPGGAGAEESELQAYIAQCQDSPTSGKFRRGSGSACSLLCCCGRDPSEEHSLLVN
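TRPML1-DL cells, Tet-induced overnight (~16 h, 37 °C) at 1,500 cells/well, were loaded with Ca8 no-wash dye plus quencher for 45-90 min at room temperature. Compounds were pinned during FDSS kinetic reading; agonist 54-4 at EC80 (4 uM final) then added.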
Menin-MLL FL inh – inhibitors of human menin-MLL interaction, wild-type MLL peptide; Fluorescence polarization, fluorescein-MLL peptide displacement from menin; FP activity change, % at 61.4 µM; 290,000 tested, under 10 active; inconclusive = falling polarisation curve, or a change in total fluorescence; inactive = total fluorescence flat and polarisation flat or rising; no compound was filed as active; the % refers to the polarisation; negative = inhibition;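 further: % of control where 0% means no effect; inhibitors lower the polarisation; unlabelled MLL peptide was the positive control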
gsp antagonist – gsp mutant antagonism | Potency, µM (doses to about 76.9 µM), without a hit: at the highest dose activity change, negative = inhibition, hits mostly inhibitors | 340,000 compounds, 0.4% hits | gsp-mutant cells, cAMP HTRF, 30 min; control for the full effect not named in the record; active = falling curve of any shape with a large fitted effect; inconclusive = falling curve, mostly with a smaller effect; inactive = flat or rising curve; cell line not stated here;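 further: intracellular cAMP measured with PDE inhibitor Ro 20-1724 present during compound exposure; potency means the concentration at half of the fitted maximal effect; on the % scale 0 is the no-effect control and ±100 the full control effect; nearly all actives have a fitted effect of over 65% in size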
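Measurement of cellular cAMP by homogeneous time-resolved fluorescence following a 30 min compound exposure at 37C. The PDE inhibitor […] was present throughout; the assay buffer was DPBS with 0.05% BSA and 0.005% Tween 20.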
ClpP mod – qHTS Assay for Activators of ClpP. purified B. subtilis ClpP, FRET peptide cleavage, 20 min. Potency, µM (highest dose often 57.5 µM), for the others: at the highest dose activity change, negative = active. 340,000 compounds, 1.9% hits; active = well fitted falling curve with a large enough effect; inconclusive = small, poorly fitted or top-dose-only effect; inactive = no such curve, though single readings can be large or run the other way; further: potency means the concentration at half of the fitted maximal effect; the source files actives as falling curves though it sought activators and does not explain the sign; nearly all actives have a fitted effect of over 65% in size; many hits overshoot -100%
Target sequence (P80244 whole entry, looked up): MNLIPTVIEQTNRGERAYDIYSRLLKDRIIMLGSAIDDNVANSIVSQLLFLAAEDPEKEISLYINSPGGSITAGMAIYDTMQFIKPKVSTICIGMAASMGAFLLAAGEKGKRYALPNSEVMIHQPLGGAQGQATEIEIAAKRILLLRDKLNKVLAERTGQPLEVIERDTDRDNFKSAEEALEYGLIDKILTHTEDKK
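Purified B. subtilis ClpP, 10 microg/mL final in Tris/HCl pH8 with KCl, BSA, glycerol and Tween-20, cleaved an Abz/nitrotyrosine-quenched decapeptide. Fluorescence (ex 320, em 430) was read at 0 and 20 min at room temperature. Delta was normalized to 5.8 microM ADEP and DMSO/no-enzyme controls.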
gsp agonist – activates gsp, the McCune-Albright syndrome mutation; gsp mutant cells, cAMP HTRF, 30 min; control for the full effect not named in the record; Potency, µM (titrated, usually from 76.9 µM), inactives show at the highest dose activation (cAMP increase), hits mostly activators; 340,000 compounds, 0.13% hits; active = well fitted activation curve with a large enough effect; inconclusive = small, poorly fitted or top-dose-only effect, or another doubt; inactive = no such curve, though single readings can be large or run the other way; cell line not stated here;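 further: phosphodiesterase inhibitor Ro 20-1724 added with compounds to block cAMP breakdown; potency means the concentration at half of the fitted maximal effect; nearly all actives have a fitted effect of over 60% in size; about a fifth of the inactives were tested at one dose only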
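Cells stably selected in G418 were plated at 2000/well, grown 16-24 hr, then given compounds in DMSO with the PDE inhibitor […] (300 uM solution added) for 30 min at 37C; cAMP was read by HTRF.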
TRPML1 agonist – activates the human TRPML1 channel; Q9GZU1; TRPML1-expressing cells, Ca2+ dye fluorescence, FDSS; host cell line not named in the record; reference of the full effect not given here; activation, % (test concentration not listed); 410,000 compounds, 0.12% hits; AID 624414; in the data active = activation above about 50%; inconclusive = about 30% to 50%; inactive = below about 30%; further: 0% is about no effect; the text of the record puts the active cut at 80%
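TRPML1-DL cells, Tet-induced overnight (~16 h, 37 degrees C), loaded 45-90 min at room temperature with Ca8 no-wash calcium dye plus quencher. FDSS fluorescence: 10 s baseline, compound pin-transfer, 110 s agonist read, then EC80 54-4 (4uM final) and 110 s antagonist read.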
Active calls of the source: *; ? = inconclusive; . = not tested or not shown; [ ] = remark or other dose.

Order of values – TRPML1 inh	Menin-MLL FL inh	gsp antagonist	ClpP mod	gsp agonist	TRPML1 agonist
CCc1cccc(CC)c1NC(=O)CSc1nnc(C(C)C)n1CC
    -1	1.8	5%	-0.6%	-24%	-0.2
CCCCOC(=O)c1ccc(NC(=S)NC(=O)c2c(Cl)cnn2CC)cc1
    10	-1.3	-9%	0.0%	7%	3.9
O=C(Nc1ccccc1)OCCNC(=O)c1cccc(Cl)c1
    -2	2.3	0%	-2.9%	-33%[inhibitor]	-0.6
Nc1nc2ccc([N+](=O)[O-])cc2[nH]1
    -4	6.4	-2%	1.3%	-5%	-0.4
O=C(NCc1cccs1)c1nc(-c2cccs2)no1
    1	1.0	2%	1.0%	-8%	-1.3
COc1ccc2[nH]cc(CCN=C(NC(=O)c3cccc(Cl)c3)Nc3nc(C)cc(C)n3)c2c1
    27	.	.	1.4%	.	4.8
CCC(C)C(=O)Nc1nc2c(s1)C(=O)CC(C)(C)C2 (configuration not stated)
    6	-0.1	3%	-6.3%	?	-1.1
CCc1ccc(NC(=O)CN(c2cccc(C)c2)S(C)(=O)=O)cc1
    -24	-3.1	1%	-1.0%	7%	4.4
Cc1ccc(NC(=O)N2CCN3CCCCC3C2)cc1C (configuration not stated)
    21	.	.	-1.3%	.	1.7
O=C(c1cccc(N2CCCC2=O)c1)N1CCN(c2ccccc2)CC1
    3	2.5	0%	-4.6%	?	-0.4
CC1CCN(C(=O)COC(=O)c2cc([N+](=O)[O-])ccc2N2CCOCC2)CC1
    11	.	3%	-2.2%	-66%[inhibitor]	0.1
CCOc1ccc(CCNC(=O)CSc2nnnn2-c2ccc(C)cc2C)cc1OCC
    10	.	.	1.6%	.	3.2
CC(C)(C)c1ccc(S(=O)(=O)Nc2ccc(Cc3ccncc3)cc2)cc1
    -13	4.0	-7%	-3.0%	-6%	1.2
CC(c1ccccc1)n1c(-c2cccs2)nc2c(c(=O)c3ccccc3n2C)c1=O (configuration not stated)
    5	5.6	-13%	-0.9%	0%[15.4 µM]	1.8
CCOC(=O)C1=C(C)NC(=O)NC1c1ccc(OCCO)c(OC)c1 (configuration not stated)
    3	1.7	4%	1.3%	-51%[inhibitor]	-0.1
Fc1cccc(-c2nnn3c2nc(NCc2ccc4c(c2)OCO4)c2ccccc23)c1
    5	.	.	-4.8%	.	-0.6
COc1ccc(CCNC(=O)CCCCn2c(=O)c3ccccc3n(Cc3ccccc3C)c2=O)cc1OC
    -11	.	.	-3.9%	.	1.8
CCOC(=O)NC(O)C(=O)c1cccs1 (configuration not stated)
    5	-4.3	14%	-0.6%	-2%[15.4 µM]	0.6
CCS(=O)(=O)N1Cc2ccccc2CC1C(=O)OCC(=O)Nc1ccc(SC(F)F)cc1 (configuration not stated)
    -9	1.5	?	0.4%	?	0.1
Cc1ccc(S(=O)(=O)N2CCCCC2)cc1NCC(=O)Nc1ccc(Br)cc1F
    12	.	.	-4.9%	3%	-0.2
CCC(=O)Nc1ccc(NC(=O)CSc2nnnn2-c2ccc3c(c2)OCCO3)cc1
    -9	0.7	2%	.	-2%[15.4 µM]	0.3
Cc1cc(C)nc(NNS(=O)(=O)c2ccc(F)c(Cl)c2)n1
    34	.	6%	0.1%	-34%[inhibitor]	1.8
Cc1ccccc1CN(c1ccc(C(=O)NCCC2=CCCCC2)cc1)S(C)(=O)=O
    -6	-0.4	-1%	1.7%	-5%	2.1
CCC(=O)Nc1ccc(-c2ccc(N3CCC(C)CC3)nn2)cc1
    -2	1.3	3%	-2.6%	24%	-0.7
O=C(NCCCc1ccccc1)c1c(O)nc2sccn2c1=O
    12	.	-6%	-1.2%	-12%	2.3
COc1ccccc1S(=O)(=O)Nc1cc(S(=O)(=O)N2CCCCC2)ccc1N1CCOCC1
    5	-1.3	-16%	.	2%	-0.7
COc1ccccc1OCC(=O)O/N=C(\N)c1ccccn1
    10	4.8	5%	-0.8%	13%	-0.6
CCCn1c(SCC(=O)NCc2cccs2)nc2c1c(=O)n(C)c(=O)n2C
    -4	2.0	-8%	-0.2%	16%	0.1
Cc1cc2c(Nc3ccc(C(=O)O)cc3)ncnc2s1
    18	1.0	5%	-1.4%	-53%[inhibitor]	0.3
COc1ccccc1-c1oc2ccccc2c1-c1ccc2c(c1)OCO2
    -9	.	?	4.0%	1%	0.6
Cc1ccc(OCCC(=O)OCC(=O)NC(=O)NC2CCCC2)cc1
    47	.	11%	0.7%	3%	0.1
CC(C)NC(=O)C1CCC(Cn2c(=O)c3sccc3n(CC(=O)Nc3ccccc3)c2=O)CC1 (configuration not stated)
    -9	.	.	-8.6%	.	-0.1
CCOc1ccc(CNCCN2CCCC2)cc1
    -12	0.4	11%	.	-11%	0.4
OC(Cc1ccnc2ccccc12)C(Cl)(Cl)Cl (configuration not stated)
    -8	.	-3%	.	9%	0.5
Cc1cc(-c2ccccc2)nc2c(Br)c(=O)[nH]n12
    16	1.8	-6%	-0.9%	-40%[inhibitor]	0.5
CC1(CC(=O)N/N=C/c2ccc(-c3ccc(Cl)cc3)o2)OCCO1
    13	-3.7	-5%	?	28%	-0.3
CN(C)S(=O)(=O)N1CCN(C(=O)c2cccc(Br)c2)CC1
    15	2.0	14%	-1.5%	-38%[inhibitor]	1.1
Cc1cc(C)nc(N/C(=N\S(=O)(=O)Cc2ccccc2)Nc2cccc(Cl)c2C)n1
    2	0.8	1%	-3.7%	-29%	0.2
O=C(C(=O)N1CCCCC1)c1c(-c2ccccc2)[nH]c2ccccc12
    13	-13	4%	.	2%	-0.2
Cc1ccc(NC(=O)Cc2csc(-c3ccccc3)n2)cc1F
    -5	8.9	-14%	.	3%[15.4 µM]	2.4
O=C(CSc1nnc(CNC(=O)c2cccs2)o1)Nc1ccccc1F
    -6	.	-4%	2.4%	-78%[inhibitor]	-0.9
OCCCNc1nc(-c2ccccc2)nc2c1oc1ccccc12
    -6	5.9	-17%	-1.0%	-3%[15.4 µM]	-0.9
O=C(c1cccs1)C1CCCN(Cc2nc(Cc3ccccc3F)no2)C1 (configuration not stated)
    -19	-0.1	1%	2.5%	-53%[inhibitor]	0.5
COc1cccc(C(=O)SC2=NCCS2)c1
    -3	-2.3	3%	-15%	-21%	1.6
O=C(COC(=O)c1ccc(S(=O)(=O)N2CCOCC2)cc1)NC1CCCCCCC1
    13	0.1	-5%	.	-1%	2.0

No new results follow: entries from further up.
Order of values – TRPML1 inh	Menin-MLL FL inh	gsp antagonist	ClpP mod	gsp agonist	TRPML1 agonist
Cc1ccc(OCCC(=O)OCC(=O)NC(=O)NC2CCCC2)cc1
    47	.	11%	0.7%	3%	0.1
CC(C)NC(=O)C1CCC(Cn2c(=O)c3sccc3n(CC(=O)Nc3ccccc3)c2=O)CC1 (configuration not stated)
    -9	.	.	-8.6%	.	-0.1

The list goes on:
Order of values – TRPML1 inh	Menin-MLL FL inh	gsp antagonist	ClpP mod	gsp agonist	TRPML1 agonist
Cc1ccc(NC(=O)c2nnn(CC(=O)Nc3ccccc3)c2N)cc1C
    -7	0.8	18%	5.4%	-2%	2.0
CNC(CC(=O)c1ccc([N+](=O)[O-])cc1)C(Cl)(Cl)Cl (configuration not stated)
    20	1.5	-6%	-8.4%	13%	0.1
O=S(=O)(c1ccccc1)N1CCCC1c1cccs1 (configuration not stated)
    12	4.5	8%	.	19%[15.4 µM]	1.4
Cc1ccccc1-c1nc(CS(=O)(=O)CC(=O)Nc2c(C)cccc2C)c(C)o1
    4	.	.	-18%	.	-0.1
COc1cc(SC)ccc1C(=O)N1CCN(Cc2ccccc2)CC1
    21	1.5	-3%	-1.6%	-40%[inhibitor]	0.5
NC1=NC2(CCCCC2)N(c2ccc(F)cc2F)C(N)=N1
    7	-2.9	0%	.	-8%[15.4 µM]	-0.7
Cc1ccc2c(c1)c1c(n2CC(O)Cn2c(C)nc3ccccc32)/C(=N\O)CCC1 (configuration not stated)
    -3	2.3	4%	-8.6%	11%	-0.4
O=C(NC(=O)c1cc(OCC(F)(F)F)ccc1OCC(F)(F)F)Nc1ccccc1
    5	0.5	2%	-2.0%	-6%	3.9
Cc1cc(C)c2cc(C(=O)Nc3ccc4c(c3)OCO4)[nH]c2c1
    4	2.3	0%	.	10%	1.8
COC(=O)Nc1nc(Sc2ncc(C(F)(F)F)cc2Cl)n[nH]1
    8	1.5	-2%	.	-36%[inhibitor]	-0.7
Cc1cc(C(=O)Nc2ccccc2C(=O)O)ccc1NC(=O)COc1cccc(C)c1C
    -12	.	?	-13%	36%	0.3
COc1ccc(-n2nc(C(=O)N3CCCCC3)c(C)c(C#N)c2=O)cc1
    -9	-5.8	-10%	1.5%	29%	-0.5
O=[N+]([O-])C1=CC=C2C(=NC3(CCCCC3)N2O)C1=NCCO
    -15	-14	?	-1.7%	-1%	-0.7
CCOC(=O)N1CCc2c(sc3c2c(=O)n(-c2ccccc2C(F)(F)F)c(=O)n3Cc2ccccc2C)C1
    -10	.	.	-4.5%	.	2.3
COc1ccc(NC(=O)c2ccccc2NC(=O)c2ccco2)c(OC)c1
    -3	2.3	-13%	-2.7%	-4%	-0.6

Single entries from the entries so far:
Value of Cc1cc(C(=O)Nc2ccccc2C(=O)O)ccc1NC(=O)COc1cccc(C)c1C under gsp agonist: 36%
Value of CNC(CC(=O)c1ccc([N+](=O)[O-])cc1)C(Cl)(Cl)Cl (configuration not stated) under TRPML1 agonist: 0.1
Value of Cc1cc(C)c2cc(C(=O)Nc3ccc4c(c3)OCO4)[nH]c2c1 under TRPML1 inh: 4

(further entries)
Order of values – TRPML1 inh	Menin-MLL FL inh	gsp antagonist	ClpP mod	gsp agonist	TRPML1 agonist
COc1ccc(-n2c(=S)[nH]c3cc(C(=O)N(C)Cc4ccccc4)ccc3c2=O)cc1
    -13	1.2	?	.	6%[15.4 µM]	-0.4
CCCCNC(=O)C1CC(=O)N(C2CCCCC2)C1 (configuration not stated)
    -8	2.1	4%	1.1%	-22%	0.0
COc1ccccc1CNC(=O)C1COc2ccccc2O1 (configuration not stated)
    -1	0.7	5%	2.2%	11%	0.2
CN1CCC(N(C)C(=O)c2cc(S(=O)(=O)N3CCOCC3)ccc2Cl)CC1
    15	.	7%	-1.8%	28%	0.6
COCCSc1ccccc1C(=O)NCc1cccnc1
    30	2.4	2%	-2.6%	-72%[inhibitor]	0.2
Cc1cccc(C(=O)OC(C)CN2CCCC2)c1 (configuration not stated)
    .	5.4	7%	-0.1%	8%	.
O=C(COC(=O)CCc1nc2ccccc2s1)Nc1nc(-c2ccccc2)cs1
    -17	2.5	7%	-0.6%	?	17
Cc1noc(C)c1C(=O)N1CCC(C(=O)c2ccccc2)CC1
    -2	0.9	6%	-1.5%	1%[15.4 µM]	0.7
CS/C(=C\[N+](=O)[O-])Nc1ccc(Cl)cc1
    -6	1.3	24%	1.0%	-4%	-0.4
